Bioassay records as filed in PubChem BioAssay.
Bst PK mod: modulators of Bacillus stearothermophilus pyruvate kinase; Potency, µM; partly purified Bacillus stearothermophilus pyruvate kinase, luminescence ATP production; ribose 5-phosphate activator present at AC10; 1.2% of 51,000 active; AID 361; in the data active means potency below about 11 µM; inconclusive means mostly about 12 µM to 25 µM; inactive means weaker than that;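 the screen sought inhibitors and activators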;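 also: potency is read from the fitted curve at half-maximal effect; scaled between full activation by ribose 5 phosphate and full inhibition by luteolin; about four in five hits inhibit and the cells do not say which; series up to 57 µM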
TsaE inh: YjeE (TsaE) inhibition, E. coli | purified YjeE, fluorescence polarisation of a bound ADP probe | 0.05% of 71,000 active | Potency, µM; active = well fitted falling curve; inconclusive = weaker or top-dose-only fall, or a rising curve; inactive = flat or poorly fitted curve;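 also: top concentration of the series not given in the record; excess ADP was the control for the full effect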
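Fluorescence polarization of a BODIPY Texas Red–ADP probe (2 uM) bound to purified YjeE (10 uM) was read after 15 min room-temperature incubation with compounds. Loss of polarization marks inhibitors; ADP serves as titrated control.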
Active calls of the source: *; i = inactive; ? = inconclusive; . = not tested or not shown. An excerpt; rates above refer to the full screens.

SMILES | Bst PK mod | TsaE inh
Clc1ccc(-n2ncc3c(NCc4cccs4)ncnc32)cc1 | i | .
CCCCCn1c(SCCC(C)C)nc2c1c(=O)[nH]c(=O)n2C | >57 | i
COc1cc2c(cc1OC)C1(CCCC1)C(N)=C2C#N | >26 | .
CN1CC[C@H](CN2c3ccccc3Sc3ccccc32)C1 | . | i
CCCN(c1ccc(OCC)cc1)c1ncnc2nc[nH]c12 | . | i
COC(=O)c1cccc(Nc2nc3ccccc3nc2C)c1 | . | i
O=C(CSc1nnnn1C1CCCCC1)NCc1ccc2c(c1)OCO2 | >57 | i
Cc1cc(C(=O)NC2CCCC2)on1 | . | i
COC(=O)c1ccccc1NC(=O)C12CCC(C)(C(=O)O1)C2(C)C (stereo not drawn) | >57 | i
CS(=O)(=O)N1CCC(C(=O)Nc2cccc(C(F)(F)F)c2)CC1 | >57 | i
O=C(O)CCC(=O)NCCn1c(-c2ccccc2)csc1=Nc1ccccc1 | >57 | i
CC(=O)N1CC2(CC2)CC1c1ccccc1 (stereo not drawn) | . | i
CCn1c(SCC(=O)NCCc2ccccc2)nnc1-c1cccs1 | >57 | i
CCOC(=O)c1c(N)sn(-c2ccccc2)c1=S | >57 | i
CCCn1c(SCC(N)=O)nnc1-c1ccco1 | >57 | i
COc1ccc(S(=O)(=O)NCC2CCC(C(=O)N3CCC4(CC3)OCCO4)CC2)cc1 (stereo not drawn) | >57 | i
CCC(=O)Nc1ccc(N2CCN(Cc3ccccc3F)CC2)cc1 | >57 | i
CCn1c(=O)c(C(=O)Nc2cccnc2)c(O)c2ccccc21 | >57 | i
CN1C(=O)c2ccc(C(=O)NC3CCCCC3)cc2C1=O | >57 | i
CC1CCCCN1S(=O)(=O)c1ccc(NC(=O)c2cccs2)cc1 (stereo not drawn) | . | i
CCn1c(=O)c2cc(C(=O)NCCN3CCOCC3)sc2c2ccccc21 | . | i
COc1ccc(CCNC(=O)Cn2cnc3c2c(=O)n(C)c(=O)n3C)cc1OC | >57 | i
CCOc1ccc(C(=O)CCN2CCCCC2)cc1 | >57 | i
CCCn1c(CNC(=O)c2ccccc2)nc2ccccc21 | >57 | i
O=C(C1CCC1)N1CCc2cc(S(=O)(=O)NCc3ccco3)ccc21 | >57 | i
CC1CCCCN1C(=O)CSc1nc2cc3c(cc2c(=O)n1Cc1ccc2c(c1)OCO2)OCO3 (stereo not drawn) | >57 | i
CCCCCC#CCC#CCC#CCC#CCCCC(=O)O | >26 | .
Cc1ccc(NC2c3ncccc3C(=O)N2C2CCCCC2)cc1 (stereo not drawn) | >57 | i
CC1(C)CC(=O)C2=C(C1)OC(/N=C/N1CCOCC1)=C(C#N)C2c1ccccc1 (stereo not drawn) | >57 | i
COc1ccc2c(C)cc(C)nc2n1 | . | i

An excerpt of these results, tab-delimited.
compound	Bst PK mod	TsaE inh
COc1ccc(S(=O)(=O)NCC2CCC(C(=O)N3CCC4(CC3)OCCO4)CC2)cc1 (stereo not drawn)	>57	i
CCC(=O)Nc1ccc(N2CCN(Cc3ccccc3F)CC2)cc1	>57	i
CCn1c(=O)c(C(=O)Nc2cccnc2)c(O)c2ccccc21	>57	i
CN1C(=O)c2ccc(C(=O)NC3CCCCC3)cc2C1=O	>57	i

Further compounds:
SMILES | Bst PK mod | TsaE inh
Cc1ccc(-c2c3c(=O)n(C)c(=O)n(C)c3cn2-c2ccccc2O)cc1 | >57 | i
Cc1nc(Nc2nc(=O)c3ccccc3n2C)nc2c(C)cccc12 | >57 | i
COC(=O)c1cccc(OC(N)=O)c1 | . | i
Cc1ccc2cc(C(c3nnnn3C(C)(C)C)N3CCCC3)c(=O)[nH]c2c1C (stereo not drawn) | >57 | i
CC(=O)Nc1cc(C(=O)c2ccccc2)ccc1N1CCOCC1 | >57 | i
O=C(c1ccco1)N1CCC[C@@]2(CCN(c3cccc(-c4ccccc4)c3)C2)C1 | . | i
Cc1ccc(NCN2C(=O)C3C4C=CC(C4)C3C2=O)cc1 (stereo not drawn) | . | i
Cc1ccc(-n2ncc3c(=O)[nH]c(SCC(=O)N4CCOCC4)nc32)cc1 | >57 | i
CN1CC(=O)Nc2ccc(F)cc2C1=O | >26 | .
O=C(CCSc1ccc(F)cc1)Nc1ccc(-n2cnnn2)cc1 | >57 | i
COc1ccc(Oc2ncc3nc(-c4ccccc4)c(=O)n(Cc4cccs4)c3n2)cc1 | . | i
CC1CCN(C(=O)CSc2nnc(-c3cccnc3)n2C2CCCCC2)CC1 | >57 | i
Cc1cc(N2CCCC(C(=O)Nc3ccc4c(c3)CCC4)C2)n2ncnc2n1 (stereo not drawn) | >57 | i
CCCCCC1CCC(C(=O)O)CC1 (stereo not drawn) | >57 | i
NS(=O)(=O)c1ccc(N=Nc2c[nH]c(=O)c(O)c2)cc1 | . | i
CCOC(=O)c1ccccc1NC(=O)Cn1cnc2c(cnn2-c2ccc(F)cc2)c1=O | >57 | i
Nc1ccc(N2CCCCCC2)cc1 | >57 | i
COc1cc(OC)nc(NC(=O)CSc2nc3ccccc3[nH]2)n1 | . | i
CCOC(=O)c1ccccc1NC(=O)CSc1nc2ccccc2o1 | >57 | i
CCN(c1cccc(C)c1)S(=O)(=O)c1ccc2[nH]c(=O)c(=O)[nH]c2c1 | >57 | i
COc1ccccc1NC(=O)CN1CCN(CC(=O)Nc2ccc3c(c2)OCCO3)CC1 | >57 | i
CC1(C)Cc2nc3sc4c(=O)n(CC(=O)NCc5ccco5)cnc4c3cc2CO1 | >57 | i
Cc1ccc(-c2nnn(CC(=O)N(CC(=O)NC3CCCCC3)c3cnc4ccccc4c3)n2)o1 | >57 | i
COC(=O)N1CCC2(CC1)CCN(c1ncccn1)CC2 | . | i
Cc1ccc(S(=O)(=O)NC2=NCCC2)cc1 | >57 | i
CCc1c(C#N)c(SCc2c(C)noc2C)nc2c1C(=O)CC(C)(C)C2 | >57 | i
CC(C)C(c1nnnn1Cc1ccco1)N1CCN(c2nc3ccccc3s2)CC1 (stereo not drawn) | >57 | i
Cc1ccc2c(c1)c1ncn(CCC3=CCCCC3)c(=O)c1n2C | . | i
CCOC(=O)N1CCN(S(=O)(=O)c2cccc3cccnc23)CC1 | ? | i
CC(C)Sc1nc2c(c(=O)n(C)c(=O)n2C)n1C | >57 | i
CCN1CCCC(OC(=O)Nc2ccccc2)C1 (stereo not drawn) | >57 | i
CN1CCn2c1nc(N1CCOCC1)nc2=O | >57 | i
Nc1cc(C(=O)c2cccs2)ccc1Cl | . | i
COc1ccc(NC(=O)Nc2ccc(C)cc2OC(F)F)cc1OC | >57 | i
CCOC(=O)c1c(C)oc2ccc(OCC(=O)C(C)(C)C)cc12 | >26 | .
CCOC(=O)CC1=C(C(=O)OCC)C(c2ccc(OC)c(OC)c2)C(C#N)=C(N)O1 (stereo not drawn) | >26 | .
NC(N)=NC(N)=Nc1ccccc1 | . | i
C=CCNC(=O)c1cc(-c2ccc(Br)cc2)on1 | >57 | i
CCOC(=O)c1c(NC(=O)c2ccc(S(=O)(=O)N3CCOCC3)cc2)sc2c1CCN(C)C2 | >57 | i
CCOc1ccc(CCNC(=O)CN2CCN(Cc3ccc(F)cc3)C2=O)cc1OCC | >57 | i
CCCOC(=O)Nc1nc2ccccc2o1 | . | i
N#Cc1nc(-c2cccs2)oc1NCCN1CCOCC1 | >26 | .
CCCS(=O)(=O)N1CCCC(C(=O)NCc2cccnc2)C1 (stereo not drawn) | >57 | i
COc1cc(C2C(C#N)=C(N)Oc3cc(O)ccc32)cc2c1OCO2 (stereo not drawn) | . | i
CCOCC(=O)Nc1nnc(C)s1 | >57 | i
O=C(O)C(=Cc1ccnc2ccccc12)C(=O)O | . | i
CCCn1c(-c2ccc(F)cc2)nc2c(NCCCCN(CC)CC)nc(C)nc21 | . | i
Cc1ccc(CC(=O)N2CCC(c3nc4c(nnn4Cc4ccccc4)c(=O)[nH]3)CC2)cc1 | . | i
Cn1c(=O)c2c(SC3CCCC3)nc(C3CC3)nc2n(C)c1=O | . | i
COc1ccc(OC)c(-c2cc(C(=O)Nc3c(C)nn(Cc4ccccc4Cl)c3C)no2)c1 | >57 | i
CCCn1cc(S(=O)(=O)CC(=O)Nc2ccc(OC)cc2OC)c2ccccc21 | >57 | i
Cn1cc(CC(=O)NCCCN2CCCC2=O)c2ccccc21 | . | i
O=C(Nc1cccc(F)c1)N1CCCC2(CCN(C(=O)c3cnccn3)CC2)C1 | . | i
COCCNC(=O)c1ccc2c(c1)nc(C)n2-c1cccc(F)c1 | >57 | i
CC(=O)[C@H]1[C@H]2[C@H](C(=O)[C@@H]3OC[C@H]2O3)[C@@H]2c3ccccc3C=CN12 | . | i
O=C(c1ccco1)N1CCN(c2ncccn2)CC1 | . | i
COc1ncc2nc(-c3cn(C)c4ccccc34)c(=O)n(C[C@H]3CCCO3)c2n1 | . | i
CCOc1ccc(C2/C(=C(\O)c3ccc(OC)c(OC)c3)C(=O)C(=O)N2c2cc(C)on2)cc1OC (stereo not drawn) | >57 | i
CC(C)c1cc(C(N)=O)c(NC(=O)C2CCC2)s1 | >57 | i
CCCCNc1nc(C)nc2c1nc(-c1ccccc1)n2CC1CCN(C)CC1 | . | i

Random excerpt: 5 records from the list.
SMILES | Bst PK mod | TsaE inh
O=C(c1ccco1)N1CCN(c2ncccn2)CC1 | . | i
CCCCNc1nc(C)nc2c1nc(-c1ccccc1)n2CC1CCN(C)CC1 | . | i
CC(=O)[C@H]1[C@H]2[C@H](C(=O)[C@@H]3OC[C@H]2O3)[C@@H]2c3ccccc3C=CN12 | . | i
Cn1c(=O)c2c(SC3CCCC3)nc(C3CC3)nc2n(C)c1=O | . | i
Cn1cc(CC(=O)NCCCN2CCCC2=O)c2ccccc21 | . | i

(next part)
SMILES | Bst PK mod | TsaE inh
COc1ccc(-c2nc(-c3ccc(NC(=O)c4ccncc4)cc3)no2)cc1OC | . | i
COc1cc(S(=O)(=O)N2CCCC3(CCCCC3)C2)ccc1-n1cnnn1 | >57 | i
O=C(c1ccc2c(c1)OCO2)N1CCCCC1 | . | i
CCOC(=O)N1CCC(N2C(=O)c3ccc(C(=O)Nc4ccc(F)cc4F)cc3C2=O)CC1 | . | i
C=CCN(CC=C)C(=O)c1ccncc1 | >57 | i
CCOc1ccc2nc(NC(=O)CSc3nnc(-c4ccncc4)n3CC3CCCO3)sc2c1 (stereo not drawn) | 4.7* | i
O=C(NC1CC1)c1scc2c1OCCO2 | >57 | i
C[C@@]12CCC(=O)C[C@@H]1CC(=O)[C@H]1[C@H]3CCC[C@]3(C)C(=O)C[C@@H]12 (tested in a mixture with another compound) | . | i
Cn1c(NCC2CCCO2)nc2c1c(=O)n(Cc1ccccc1)c(=O)n2C (stereo not drawn) | >57 | i
CCC1CCCCN1C(=O)Cn1c(C(=O)OC)cc2sc(Cl)cc21 (stereo not drawn) | >57 | i
CCC(Sc1nncn1C)C(=O)Nc1ccccc1OC (stereo not drawn) | >57 | i
O=C(Nc1cccc(NC(=O)c2ccco2)c1)c1ccc2c(c1)OCO2 | >57 | i
O=C(O)CCC(=O)c1ccc2c(c1)OCCCO2 | >57 | i
Cc1cc(NC(=O)COc2ccc(Cl)cc2Cl)n(CCC#N)n1 | >57 | i
Cn1c(C(=O)N2CCCC(C(=O)O)C2)cc2sccc21 (stereo not drawn) | >57 | i
NC(=O)c1cnn2c(C(F)(F)F)cc(-c3ccc(F)cc3)nc12 | 2.7* | i
COc1ccc(CC(=O)NCc2nnc(SCC(=O)N3CCN(c4ccccc4)CC3)n2C)cc1 | >57 | i
O=C(NCCCn1ccnc1)Nc1cccc(Cl)c1 | >57 | i
CCCC(=O)Nc1cc(C)c(NC(=O)c2ccncc2)cn1 | >57 | i
CN(Cc1ccccc1)Cc1ccccc1F | >57 | i
O=C(O)[C@H]1CCCNC1 | . | i
COc1nc(N)nc2c1ncn2[C@@H]1C[C@H](O)[C@@H](CO)O1 | . | i
C=CCOC(=O)C1=C(C)Nc2nnnn2C1c1cc(OC)ccc1OC (stereo not drawn) | >57 | i
CCN(CC)CCNC(=O)CS(=O)Cc1nc(-c2ccc(C)cc2)oc1C (stereo not drawn) | >57 | i
O=C1CN(C(=O)c2ccc(Br)o2)C(c2ccc(F)cc2)c2cc(Cl)ccc2N1 (stereo not drawn) | i | i
Cc1ccc(-n2c(-c3ccncc3)nnc2-c2ccco2)cc1 | >57 | i
O=C(NC12CC3CC(CC(C3)C1)C2)C1CCCN1C(=O)NC1CCCCC1 (stereo not drawn) | >57 | i
CCc1nc(N2CCOCC2)c(C#N)c2c1COC(C)(C)C2 | >57 | i
Cn1c(=O)cc(N2CCc3ccccc32)[nH]c1=O | . | i
Cc1ccnc(N2C(=O)c3ccccc3C2Nc2cccc(C)c2C)c1 (stereo not drawn) | . | i
CC(=O)Nc1cccc(NC(=O)CCn2cnc3cc(C)c(C)cc32)c1 | >57 | i
Cc1cc(N2CCN(C(=O)c3ccco3)CC2)n2nc(C)c(-c3ccc(Cl)cc3)c2n1 | >57 | i
CCc1nnc(NC(=O)c2cccs2)s1 | . | i
CCOC(=O)c1c(C)[nH]c(C)c1C(=O)CSc1nnnn1-c1ccccc1 | >57 | i
CC(C)CN(C(=O)COC(=O)Cc1n[nH]c(=O)c2ccccc12)C1CCS(=O)(=O)C1 (stereo not drawn) | >57 | i
COc1cc2c(cc1OC)-c1cc3ccc(OC)c(OC)c3c[n+]1CC2 | . | i
O=C1C2C3C=CC(C3)C2C(=O)N1c1cccc2cccnc12 (stereo not drawn) | . | i

Compound profiles (already shown). Order of values: Bst PK mod, TsaE inh
CC(C)CN(C(=O)COC(=O)Cc1n[nH]c(=O)c2ccccc12)C1CCS(=O)(=O)C1 (stereo not drawn) in the list: >57, i
O=C1C2C3C=CC(C3)C2C(=O)N1c1cccc2cccnc12 (stereo not drawn) in the list: ., i
